# A1 apoptosis 2: blocks A1, raising caspase activity; MEF A1-2A-BIM cells, caspase-Glo luminescence, 3 h; percent of clofoctol response, DMSO zero; AID 2465; caspase activation, % (test concentration not listed); 24,000 tested, under 10 active; in the data active = caspase activation above about 5.9%;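 also: wells of about 30 µL received 50 nL stock; the first replicate is given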
#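 Material: A1-2A-BIM-expressing MEF cells. Buffer or medium: RPMI-1640 plus 10% FBS. Incubation: cells settled overnight, compound exposure 3 h at 37 °C, 5% CO2. Signal: Caspase-Glo 3/7 luminescence, 1 h at room temperature.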
# Active calls of the source: *. Some of the compounds tested; the hit share may differ from the screen's.
item	Molecule	A1 apoptosis 2
1	C[C@H]1CN([C@@H](C)CO)C(=O)c2cc(NS(=O)(=O)c3cccs3)ccc2O[C@@H]1CN(C)CC1CCCCC1	2.7
2	Cc1noc(C)c1NC(=O)Nc1ccc2c(c1)CC(=O)N([C@H](C)CO)C[C@H](C)[C@@H](CN(C)S(=O)(=O)c1ccc(F)cc1)O2	-0.6
3	C[C@@H]1CN([C@H](C)CO)C(=O)CCCn2nncc2CO[C@H]1CN(C)C(=O)c1ccccc1	0.2
4	COc1ccc(CN(C)C[C@H]2OCCCC[C@H](C)Oc3ccc(NC(=O)Nc4ccc5c(c4)OCO5)cc3C(=O)N([C@@H](C)CO)C[C@@H]2C)cc1	0.8
5	CC(C)NC(=O)N(C)C[C@H]1OCCCC[C@H](C)Oc2ccc(N(C)C)cc2C(=O)N([C@H](C)CO)C[C@@H]1C	-0.5
6	C[C@@H]1CN([C@@H](C)CO)C(=O)Cc2cc(NS(=O)(=O)c3cn(C)cn3)ccc2O[C@@H]1CN(C)S(=O)(=O)c1cccs1	0.1
7	C[C@@H]1CN([C@H](C)CO)C(=O)c2cc(N(C)C)ccc2O[C@H]1CN(C)Cc1ccc(C(F)(F)F)cc1	-1.6
8	C[C@@H]1CN([C@H](C)CO)C(=O)c2cccc(NC(=O)c3nc4ccccc4s3)c2O[C@@H]1CN(C)Cc1ccc2c(c1)OCO2	0.3
9	COc1ccc(CN(C)C[C@H]2OCCCC[C@@H](C)Oc3ccc(NC(=O)Nc4ccc5c(c4)OCO5)cc3C(=O)N([C@H](C)CO)C[C@@H]2C)cc1	-0.8
10	C[C@@H]1CN([C@H](C)CO)C(=O)Cc2cc(NC(=O)CCCN(C)C)ccc2O[C@@H]1CN(C)Cc1ccc(-c2ccccc2)cc1	0.4
11	CC(C)NC(=O)Nc1ccc2c(c1)C(=O)N([C@H](C)CO)C[C@H](C)[C@H](CN(C)C(=O)CCCN(C)C)OCCCC[C@@H](C)O2	1.1
12	C[C@@H]1CN([C@H](C)CO)C(=O)c2cccc(NS(=O)(=O)c3cccs3)c2O[C@H]1CN(C)CC1CCCCC1	1.9
13	C[C@@H]1CN([C@@H](C)CO)C(=O)Cc2cc(NC(=O)C3CCCCC3)ccc2O[C@@H]1CN(C)Cc1ccc(C(=O)O)cc1	-2.4
14	Cc1noc(C)c1NC(=O)N(C)C[C@@H]1Oc2ccc(NC(=O)Nc3ccc(F)cc3)cc2C(=O)N([C@H](C)CO)C[C@@H]1C	-1.8
15	C[C@@H]1CN([C@@H](C)CO)C(=O)c2cc(NS(=O)(=O)c3cn(C)cn3)ccc2O[C@@H](C)CCCCO[C@@H]1CN(C)C(=O)C1CCCCC1	-1.5
16	C[C@@H]1CCCCO[C@@H](CN(C)C(=O)CCC(F)(F)F)[C@H](C)CN([C@H](C)CO)C(=O)c2cc(NS(=O)(=O)c3cccs3)ccc2O1	-0.6
17	C[C@H](CO)N1C[C@H](C)[C@H](CN(C)Cc2ccc(Oc3ccccc3)cc2)Oc2c(NC(=O)Nc3ccc4c(c3)OCO4)cccc2C1=O	-0.7
18	C[C@@H]1CCCCO[C@@H](CN(C)C(=O)C2CCCCC2)[C@@H](C)CN([C@H](C)CO)C(=O)c2cc(NS(=O)(=O)c3cccs3)ccc2O1	-1.3
19	C[C@@H]1CN([C@@H](C)CO)C(=O)c2cc(NC(=O)Cc3ccccc3)ccc2O[C@H]1CN(C)C(=O)Nc1ccc(F)cc1	-0.6
20	O=C(C1=C[C@@H](c2ccccc2)C[C@@H](OCCCCO)O1)N1CCOCC1	-0.5
21	C[C@H]1CN([C@@H](C)CO)C(=O)c2cccc(NC(=O)Nc3cccc4ccccc34)c2O[C@@H]1CN(C)C(=O)Nc1ccccc1	-0.2
22	O=C(CCCCC(=O)N/N=C/c1c(O)ccc2ccccc12)NO	-0.3
23	C[C@H]1CN([C@@H](C)CO)C(=O)CCCn2cc(nn2)CO[C@@H]1CN(C)C(=O)Nc1cccc(C(F)(F)F)c1	0.4
24	O=C(C1=C[C@@H](C2CC2)C[C@@H](OCCCCO)O1)N1CCN(Cc2ccc3c(c2)OCO3)CC1	0.7

# Gathered by group: those above containing an aryl methoxy group (2)
item	Molecule	A1 apoptosis 2
4	COc1ccc(CN(C)C[C@H]2OCCCC[C@H](C)Oc3ccc(NC(=O)Nc4ccc5c(c4)OCO5)cc3C(=O)N([C@@H](C)CO)C[C@@H]2C)cc1	0.8
9	COc1ccc(CN(C)C[C@H]2OCCCC[C@@H](C)Oc3ccc(NC(=O)Nc4ccc5c(c4)OCO5)cc3C(=O)N([C@H](C)CO)C[C@@H]2C)cc1	-0.8

# Additional records follow.
item	Molecule	A1 apoptosis 2
25	Cc1ccc(S(=O)(=O)N(C)C[C@H]2OCCCC[C@H](C)Oc3ccc(NC(=O)c4ccncc4)cc3C(=O)N([C@H](C)CO)C[C@@H]2C)cc1	0.5
26	Cc1noc(C)c1NC(=O)Nc1ccc2c(c1)C(=O)N([C@@H](C)CO)C[C@@H](C)[C@@H](CN(C)C(=O)Nc1ccccc1)OCCCC[C@@H](C)O2	-0.8
27	COc1ccc(NC(=O)Nc2ccc3c(c2)C(=O)N([C@@H](C)CO)C[C@@H](C)[C@H](CN(C)C(=O)Nc2ccc(C(F)(F)F)cc2)OCCCC[C@@H](C)O3)cc1	0.3
28	COc1ccc(CN(C)C[C@H]2Oc3ccc(NC(=O)Cc4cn(C)c5ccccc45)cc3CC(=O)N([C@H](C)CO)C[C@@H]2C)cc1	-0.2
29	C[C@H]1CN([C@@H](C)CO)C(=O)c2cc(NC(=O)Nc3ccccc3)ccc2O[C@@H]1CN(C)S(=O)(=O)c1ccccc1	-0.2
30	C[C@H](CO)N1C[C@H](C)[C@@H](CN(C)S(=O)(=O)c2cn(C)cn2)OCCCC[C@H](C)Oc2ccc(NC(=O)CCCCCC(=O)Nc3ccccc3N)cc2C1=O	0.1
31	Cc1noc(C)c1NC(=O)Nc1ccc2c(c1)C(=O)N([C@@H](C)CO)C[C@@H](C)[C@@H](CN(C)S(=O)(=O)c1ccc(Cl)cc1)O2	-1.1
32	C[C@H](CO)N1C[C@H](C)[C@H](CN(C)Cc2ccccc2)Oc2c(NC(=O)c3ccncc3)cccc2C1=O	-1.2
33	COc1ccc(NC(=O)Nc2ccc3c(c2)C(=O)N([C@@H](C)CO)C[C@@H](C)[C@@H](CN(C)C(=O)C2CCCCC2)OCCCC[C@H](C)O3)cc1	-1.0
34	C[C@@H]1CCCCO[C@@H](CN(C)Cc2ccc(C(F)(F)F)cc2)[C@@H](C)CN([C@H](C)CO)C(=O)c2cc(NS(=O)(=O)c3ccccc3)ccc2O1	0.2
35	C[C@H](CO)N1C[C@H](C)[C@H](CN(C)Cc2ccccc2)Oc2ncc(/C=C/c3ccccc3)cc2C1=O	-0.4
36	C[C@@H]1CN([C@@H](C)CO)C(=O)Cc2cc(NC(=O)Nc3ccc(C(F)(F)F)cc3)ccc2O[C@@H]1CN(C)Cc1ccc(-c2ccccc2)cc1	1.3
37	C[C@H]1CN([C@@H](C)CO)C(=O)c2cc(NC(=O)CCC(F)(F)F)ccc2O[C@@H]1CN(C)C(=O)Nc1ccccc1	0.4
38	C[C@H]1CN([C@@H](C)CO)C(=O)c2cccc(NC(=O)C3CCCCC3)c2O[C@H]1CN(C)Cc1ccc2c(c1)OCO2	0.7
39	C[C@H]1CCCCO[C@@H](CN(C)C(=O)NC2CCCCC2)[C@@H](C)CN([C@@H](C)CO)C(=O)c2cc(NC(=O)c3ccccc3)ccc2O1	-0.1
40	C[C@@H]1CN([C@H](C)CO)C(=O)c2cc(NC(=O)Nc3ccc4c(c3)OCO4)ccc2O[C@@H]1CN(C)Cc1ccncc1	-0.2
41	COc1ccc(S(=O)(=O)N(C)C[C@H]2Oc3ccc(NC(=O)Nc4ccc5c(c4)OCO5)cc3CC(=O)N([C@@H](C)CO)C[C@H]2C)cc1	0.5
42	C[C@H]1CN([C@@H](C)CO)C(=O)Cc2cc(NC(=O)NC3CCCCC3)ccc2O[C@H]1CN(C)C(=O)Nc1ccc2c(c1)OCO2	-0.6
43	COc1ccc(S(=O)(=O)Nc2ccc3c(c2)C(=O)N([C@@H](C)CO)C[C@H](C)[C@@H](CN(C)C(=O)C2CCCCC2)OCCCC[C@@H](C)O3)cc1	-0.5
44	C[C@@H]1CCCCO[C@H](CN(C)Cc2ccccc2)[C@H](C)CN([C@@H](C)CO)C(=O)c2cc(NS(=O)(=O)c3ccccc3)ccc2O1	-1.0
45	O=C(NO)c1cccc(C(=O)N/N=C/c2cccc(OCCO)c2)c1	-2.5
46	C[C@H](CO)N1C[C@H](C)[C@H](CN(C)S(=O)(=O)c2cccs2)Oc2ccc(NS(=O)(=O)c3ccc(Cl)cc3)cc2CC1=O	0.2
47	Cc1ccccc1/C=N/NC(=O)c1cccc(C(=O)NO)c1	-1.8
48	CNC[C@@H]1OCCCC[C@@H](C)Oc2ccc(NS(=O)(=O)c3ccc(Cl)cc3)cc2C(=O)N([C@@H](C)CO)C[C@H]1C	-0.1
49	C[C@H](CO)N1C[C@H](C)[C@H](CN(C)Cc2ccc(C(F)(F)F)cc2)Oc2c(NS(=O)(=O)c3ccccc3)cccc2C1=O	1.6
50	Cc1ccc(S(=O)(=O)N(C)C[C@@H]2Oc3ccc(NS(=O)(=O)c4cccs4)cc3CC(=O)N([C@@H](C)CO)C[C@@H]2C)cc1	-1.4
51	C[C@H](CO)N1C[C@H](C)[C@@H](CN(C)C(=O)Nc2ccc(C(F)(F)F)cc2)Oc2ccc(NC(=O)Cn3cnnn3)cc2CC1=O	0.3
52	C[C@@H]1CN([C@@H](C)CO)C(=O)c2cccc(NC(=O)NC3CCCCC3)c2O[C@@H]1CN(C)S(=O)(=O)c1cccs1	1.1
53	COc1ccc(CN(C)C[C@H]2Oc3ccc(NC(=O)CCC(F)(F)F)cc3C(=O)N([C@@H](C)CO)C[C@@H]2C)cc1	0.0
54	C[C@@H]1CN([C@@H](C)CO)C(=O)Cc2cc(NC(=O)Cc3ccccc3)ccc2O[C@@H]1CN(C)C(=O)Nc1ccccc1	0.2
55	COc1cc2c(cc1O)C(c1cccs1)N(C)CC2 (configuration not stated)	-0.3
56	COc1ccc(NC(=O)Nc2ccc3c(c2)C(=O)N([C@H](C)CO)C[C@H](C)[C@H](CN(C)S(=O)(=O)c2cn(C)cn2)O3)cc1	1.5
57	C[C@@H]1CN([C@@H](C)CO)C(=O)c2cccc(NS(=O)(=O)c3cn(C)cn3)c2O[C@@H]1CN(C)C(=O)Nc1ccccc1	-1.1
58	C[C@@H]1CCCCO[C@H](CN(C)C)[C@@H](C)CN([C@@H](C)CO)C(=O)c2cc(NS(=O)(=O)c3ccc(F)cc3)ccc2O1	1.0
59	C[C@@H]1CCCCO[C@@H](CN(C)C(=O)C2CCCCC2)[C@H](C)CN([C@H](C)CO)C(=O)c2cc(NC(=O)c3ccncc3)ccc2O1	0.1
60	C=CCOC(=O)C(=O)/C=C/c1cn(C(C)=O)c2ccccc12	1.3

# Among those listed so far, these have a Cl atom.
item	Molecule	A1 apoptosis 2
31	Cc1noc(C)c1NC(=O)Nc1ccc2c(c1)C(=O)N([C@@H](C)CO)C[C@@H](C)[C@@H](CN(C)S(=O)(=O)c1ccc(Cl)cc1)O2	-1.1
46	C[C@H](CO)N1C[C@H](C)[C@H](CN(C)S(=O)(=O)c2cccs2)Oc2ccc(NS(=O)(=O)c3ccc(Cl)cc3)cc2CC1=O	0.2
48	CNC[C@@H]1OCCCC[C@@H](C)Oc2ccc(NS(=O)(=O)c3ccc(Cl)cc3)cc2C(=O)N([C@@H](C)CO)C[C@H]1C	-0.1

# (listing goes on)
item	Molecule	A1 apoptosis 2
61	C[C@@H]1CN([C@@H](C)CO)C(=O)c2cccc(NC(=O)c3cnccn3)c2O[C@@H]1CN(C)Cc1ccc(C(=O)O)cc1	0.3
62	C[C@H]1CCCCO[C@H](CN(C)S(=O)(=O)c2ccccc2)[C@@H](C)CN([C@@H](C)CO)C(=O)c2cc(NC(=O)CCC(F)(F)F)ccc2O1	-1.3
63	C[C@H](CO)N1C[C@H](C)[C@H](CN(C)Cc2ccncc2)Oc2c(NC(=O)c3cnccn3)cccc2C1=O	-1.4
64	C[C@H]1CN([C@@H](C)CO)C(=O)c2cccc(NC(=O)c3cnccn3)c2O[C@@H]1CN(C)Cc1ccc2c(c1)OCO2	0.5
65	C[C@H]1CN([C@@H](C)CO)C(=O)Cc2cc(NC(=O)NC3CCCCC3)ccc2O[C@@H]1CN(C)C	-1.9
66	COc1ccc(S(=O)(=O)Nc2cccc3c2O[C@H](CN(C)C)[C@@H](C)CN([C@@H](C)CO)C3=O)cc1	0.0
67	Cc1ccc(S(=O)(=O)N(C)C[C@H]2Oc3ccc(NS(=O)(=O)c4cccs4)cc3C(=O)N([C@@H](C)CO)C[C@@H]2C)cc1	-0.1
68	Cc1noc(C)c1S(=O)(=O)N(C)C[C@@H]1Oc2ccc(NC(=O)Nc3ccc4c(c3)OCO4)cc2CC(=O)N([C@@H](C)CO)C[C@@H]1C	-1.0
69	COc1ccc(NC(=O)N(C)C[C@@H]2Oc3ccc(NS(=O)(=O)c4ccc(F)cc4)cc3C(=O)N([C@@H](C)CO)C[C@@H]2C)cc1	-0.6
70	COC(=O)C(CC#Cc1ccc2c(c1)[C@]1(C(=O)N2)[C@H](c2ccccc2OCCO)N2[C@H](c3ccccc3)[C@H](c3ccccc3)OC(=O)[C@H]2[C@@H]1C(=O)O)C(=O)OC	0.9
71	C[C@H]1CCCCO[C@@H](CN(C)S(=O)(=O)c2cccs2)[C@@H](C)CN([C@@H](C)CO)C(=O)c2cc(NS(=O)(=O)c3ccccc3)ccc2O1	-0.6
72	C[C@@H]1CN([C@H](C)CO)C(=O)Cc2cc(NC(=O)Nc3ccc4c(c3)OCO4)ccc2O[C@H]1CN(C)C(=O)NC1CCCCC1	0.2

# Source: PubChem BioAssay
